Screens (PubChem BioAssay)
FGF22 binding: binders of human FGF22 protein, primary screen, FGF22 synaptogenesis inhibitor project, biophysical, thermal shift, single point | Fibroblast growth factor 22 (Homo sapiens), Q9HCT0 | recombinant FGF22 thermal shift, SYPRO orange fluorescence; percent of sucrose octasulfate shift, DMSO zero | calls only at 9.99 µM | 340,000 compounds, 1.5% hits;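 active = melting point raised past a set limit in the mean and every replicate; three in four hits are not shown here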
Target sequence (Q9HCT0 whole entry, looked up): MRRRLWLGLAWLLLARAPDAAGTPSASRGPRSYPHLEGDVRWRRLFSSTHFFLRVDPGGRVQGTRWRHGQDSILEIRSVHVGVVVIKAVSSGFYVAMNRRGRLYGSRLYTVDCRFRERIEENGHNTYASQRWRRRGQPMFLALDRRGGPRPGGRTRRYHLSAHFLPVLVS
Calls only; i = inactive; + = active, no number. An excerpt; the hit share may differ from the screen's.

SMILES	FGF22 binding
CCCNC(=O)C[C@H]1CC[C@@H]2[C@H](COC[C@H](O)CN2C(=O)c2ccc(F)cc2)O1	i
C[C@H](CO)N1C[C@H](C)[C@H](CN(C)C(=O)Nc2ccc(F)cc2)OCCCC[C@H](C)Oc2ccc(NC(=O)c3ccccc3)cc2C1=O	i
C[C@@H]1CCCCO[C@@H](CN(C)CC2CCCCC2)[C@H](C)CN([C@H](C)CO)C(=O)c2cc(NS(=O)(=O)c3ccc(F)cc3)ccc2O1	i
C[C@@H]1CN([C@@H](C)CO)C(=O)c2cc(-c3cccc(F)c3)cnc2O[C@@H]1CN(C)CC1CCOCC1	i
COCC(=O)N1[C@H](CO)[C@H](c2ccc(C3=CCCCC3)cc2)[C@@H]1C#N	i
C[C@H](CO)N1C[C@H](C)[C@@H](CN(C)C(=O)Nc2cccc3ccccc23)Oc2ccc(NC(=O)CCCN(C)C)cc2C1=O	i
CCO[C@@H]1OC(C(=O)N2CCN(Cc3ccccc3)CC2)=C[C@H](c2ccc3c(c2)OCO3)[C@H]1CCCO	i
C[C@H]1CN([C@@H](C)CO)C(=O)Cc2cc(NC(=O)Cn3cnnn3)ccc2O[C@@H]1CN(C)C(=O)Nc1ccc2c(c1)OCO2	i
O=S(=O)(c1ccc(F)cc1)N1CCCCN2[C@H](C1)[C@@H](c1ccc(-c3ccccc3F)cc1)[C@@H]2CO	i
C[C@@H]1CCCCO[C@@H](CN(C)C(=O)Nc2ccc(C(F)(F)F)cc2)[C@H](C)CN([C@@H](C)CO)C(=O)c2cc(NS(=O)(=O)c3cn(C)cn3)ccc2O1	i
C[C@H](CO)N1C[C@H](C)[C@@H](CN(C)Cc2ccccc2)Oc2ncc(C3=CCCCC3)cc2C1=O	i
CC(C)(C)S(=O)N1Cc2cc(C(=O)NCCCN3CCOCC3)nc(-c3cccc(-c4cccc(F)c4)c3)c2[C@H]1CCO (stereo partly specified)	i
C[C@@H]1CN([C@@H](C)CO)C(=O)Cc2cc(NC(=O)CCC(F)(F)F)ccc2O[C@@H]1CN(C)Cc1ccc2c(c1)OCO2	i
O=C(C[C@H]1CC[C@H]2[C@@H](COC[C@@H](O)CN2Cc2ccccc2F)O1)NC1CCC1	i
CCCN1[C@@H]2c3cccc(=O)n3C[C@H]1[C@H](CO)[C@H]2C(=O)Nc1ccccc1	i
CO[C@@H]1CN(C)C(=O)c2cc(NC(=O)C3CCOCC3)ccc2OC[C@@H](C)N(Cc2cccnc2)C[C@@H]1C	i
COCC(=O)N1CCCCN2[C@H](CO)[C@@H](c3ccc(-c4ccccc4)cc3)[C@@H]2C1	i
Cc1noc(C)c1S(=O)(=O)Nc1cccc2c1O[C@H](CN(C)S(C)(=O)=O)[C@H](C)CN([C@H](C)CO)C2=O	i
CO[C@@H]1CC[C@@H]2CCOc3ccc(C#N)cc3C(=O)N(C)[C@H](C)C(=O)N(C)C[C@@H]1O2	i
COc1ccc2c3c([nH]c2c1)[C@@H](CO)N(C(=O)CN(C)C)CC31CN(C(=O)c2ccncc2)C1	i

Arranged by number of heavy atoms (low to high): part of the list above.
SMILES	FGF22 binding
COCC(=O)N1[C@H](CO)[C@H](c2ccc(C3=CCCCC3)cc2)[C@@H]1C#N	i
C[C@@H]1CN([C@@H](C)CO)C(=O)c2cc(-c3cccc(F)c3)cnc2O[C@@H]1CN(C)CC1CCOCC1	i
CO[C@@H]1CN(C)C(=O)c2cc(NC(=O)C3CCOCC3)ccc2OC[C@@H](C)N(Cc2cccnc2)C[C@@H]1C	i

Continuation.
SMILES	FGF22 binding
C[C@@H]1CN([C@@H](C)CO)C(=O)c2c(c3ccccc3n2C)-c2ccccc2CO[C@@H]1CN(C)Cc1cccc(F)c1	i
COc1ccc2c3c(n(C)c2c1)[C@H](CO)N(C(=O)c1cccnc1)CC31CN(S(C)(=O)=O)C1	i
C[C@H](O)C#Cc1cnc2c(c1)C(=O)N([C@H](C)CO)C[C@@H](C)[C@@H](CN(C)C(=O)CC1CC1)O2	i
C/C=C/c1cnc2c(c1)C(=O)N([C@@H](C)CO)C[C@H](C)[C@H](CN(C)C(=O)Cc1cccnc1)O2	i
COc1cccc(S(=O)(=O)N2CCCCN3[C@@H](CO)[C@@H](c4ccc(-c5cccnc5)cc4)[C@@H]3C2)c1	i
CC(=O)N(C)C[C@H]1Oc2cc(C#C[C@H](C)O)ccc2S(=O)(=O)N([C@H](C)CO)C[C@H]1C	i
O=C(C[C@@H]1C=C[C@@H](NS(=O)(=O)c2ccccc2)[C@@H](CO)O1)N1CCc2ccccc2C1	i
Cc1ccc(S(=O)(=O)Nc2cccc3c2O[C@H](CN(C)Cc2ccc(C(F)(F)F)cc2)[C@@H](C)CN([C@@H](C)CO)C3=O)cc1	i
CCC(=O)NC[C@@H]1[C@H](c2ccccc2)[C@H](CO)N1C(=O)C1CCC1	i
C[C@H](CO)N1C[C@H](C)[C@H](CN(C)C(=O)c2ccccc2)OCCCC[C@H](C)Oc2ccc(NS(=O)(=O)c3cccs3)cc2C1=O	i
C[C@H](CO)N1C[C@H](C)[C@@H](CN(C)C(=O)Nc2ccccc2)Oc2ccc(NS(C)(=O)=O)cc2C1=O	i
C[C@H]1CN([C@@H](C)CO)S(=O)(=O)c2ccc(C#CC3CC3)cc2O[C@H]1CN(C)C	i
C[C@H]1CN([C@@H](C)CO)S(=O)(=O)c2ccc(-c3cccc(F)c3)cc2O[C@H]1CN(C)C	i
C[C@H](CO)N1C[C@H](C)[C@@H](CN(C)CC2CC2)Oc2ccc(NS(=O)(=O)c3ccc(Cl)cc3)cc2CC1=O	i
Cc1noc(C)c1NC(=O)N(C)C[C@H]1Oc2ccc(NC(=O)Nc3ccc(C(F)(F)F)cc3)cc2C(=O)N([C@@H](C)CO)C[C@@H]1C	i
C[C@@H]1CN([C@H](C)CO)S(=O)(=O)c2ccc(C#CCN(C)C)cc2O[C@H]1CN(C)C(=O)CN(C)C	i
Cc1noc(C)c1S(=O)(=O)Nc1ccc2c(c1)CC(=O)N([C@@H](C)CO)C[C@@H](C)[C@H](CN(C)S(=O)(=O)c1ccc(F)cc1)O2	i
C[C@@H]1CN([C@@H](C)CO)C(=O)c2cccc(NS(=O)(=O)c3ccccc3)c2O[C@@H]1CN(C)CC1CC1	i
C[C@@H]1CN([C@@H](C)CO)C(=O)c2c(c3ccccc3n2C)-c2ccccc2CO[C@H]1CN(C)Cc1cccc(O)c1	i
COCC(=O)N(C)C[C@H]1Oc2ncc(-c3ccc(F)cc3)cc2C(=O)N([C@@H](C)CO)C[C@H]1C	i

Retrieved by compound from the entries so far:
SMILES	FGF22 binding
Cc1ccc(S(=O)(=O)Nc2cccc3c2O[C@H](CN(C)Cc2ccc(C(F)(F)F)cc2)[C@@H](C)CN([C@@H](C)CO)C3=O)cc1	i
CC(=O)N(C)C[C@H]1Oc2cc(C#C[C@H](C)O)ccc2S(=O)(=O)N([C@H](C)CO)C[C@H]1C	i
C[C@@H]1CN([C@@H](C)CO)C(=O)c2cc(-c3cccc(F)c3)cnc2O[C@@H]1CN(C)CC1CCOCC1	i

Other compounds
SMILES	FGF22 binding
C[C@@H]1CN([C@H](C)CO)C(=O)c2cccc(NC(=O)C3CCCCC3)c2O[C@@H]1CN(C)C(=O)Nc1ccc2c(c1)OCO2	i
O=C(C[C@@H]1CC[C@@H]2[C@H](COC[C@@H](O)CN2Cc2cc(F)cc(F)c2)O1)NC1CCC1	i
Cc1cccc(S(=O)(=O)N2C[C@H]3[C@@H](c4ccccc42)[C@@H](CO)N3C(=O)C2CC2)c1	i
Cc1noc(C)c1S(=O)(=O)Nc1ccc2c(c1)C(=O)N([C@H](C)CO)C[C@H](C)[C@H](CN(C)Cc1ccc(Oc3ccccc3)cc1)O2	i
O=C(C[C@@H]1C[C@H]2c3cc(NC(=O)Nc4ccccc4F)ccc3O[C@H]2[C@H](CO)O1)NC1CCCC1	i
COc1ccc(C#Cc2ccc3c(c2)O[C@@H](CN(C)C(C)=O)[C@H](C)CN([C@H](C)CO)S3(=O)=O)cc1	i
C[C@@H]1CCCCO[C@@H](CN(C)S(=O)(=O)c2ccc(F)cc2)[C@H](C)CN([C@@H](C)CO)C(=O)c2cc(NC(=O)c3ccncc3)ccc2O1	i
CCCNC(=O)N(C)C[C@H]1Oc2ncc(C3=CCCC3)cc2C(=O)N([C@@H](C)CO)C[C@H]1C	i
COc1ccc(S(=O)(=O)Nc2ccc3c(c2)C(=O)N([C@@H](C)CO)C[C@H](C)[C@@H](CN(C)C(=O)Nc2ccc4c(c2)OCO4)OCCCC[C@@H](C)O3)cc1	i
C[C@@H]1CN([C@H](C)CO)C(=O)Cc2cc(NS(=O)(=O)c3ccc(Cl)cc3)ccc2O[C@H]1CN(C)C(=O)Nc1ccc(C(F)(F)F)cc1	i
O=C(C[C@@H]1C=C[C@H](NC(=O)c2ccc(F)cc2)[C@H](CO)O1)NCCc1ccncc1	i
O=C(O)C[C@H]1CC[C@@H]2[C@H](COC[C@@H](O)CN2S(=O)(=O)c2ccc(F)cc2)O1	i
C[C@@H]1CN([C@@H](C)CO)C(=O)c2cc(NS(=O)(=O)c3ccc(Cl)cc3)ccc2O[C@@H]1CN(C)C(=O)NC1CCCCC1	i
COc1ccc(-c2cnc3c(c2)C(=O)N([C@@H](C)CO)C[C@H](C)[C@H](CN(C)C(=O)C2CCC2)O3)cc1	i
C[C@H]1CN([C@@H](C)CO)C(=O)Cc2cc(NC(=O)Nc3cccc4ccccc34)ccc2O[C@H]1CN(C)CC1CC1	i
O=C(C[C@@H]1C[C@H]2c3cc(NC(=O)C4CCOCC4)ccc3O[C@H]2[C@@H](CO)O1)NCc1ccncc1	i
COCC(=O)Nc1ccc2c(c1)C(=O)N(C)[C@@H]1CC[C@H](CC(=O)NCC3CC3)O[C@@H]1CO2	i
CO[C@@H]1CN(C)C(=O)c2cc(NC(=O)C3CCC3)ccc2OC[C@H](C)N(Cc2cccnc2)C[C@H]1C	i
C[C@@H]1CN([C@@H](C)CO)C(=O)Cc2cc(NC(=O)Cc3cn(C)c4ccccc34)ccc2O[C@H]1CN(C)Cc1ccc2c(c1)OCO2	i
COc1ccc(CN(C)C[C@@H]2Oc3c(NS(=O)(=O)c4ccccc4)cccc3C(=O)N([C@@H](C)CO)C[C@H]2C)cc1	i

Shown as a markdown table: entries from further up
| canonical_smiles | FGF22 binding |
| --- | --- |
| O=C(C[C@H]1CC[C@H]2[C@@H](COC[C@@H](O)CN2Cc2ccccc2F)O1)NC1CCC1 | i |
| CCCN1[C@@H]2c3cccc(=O)n3C[C@H]1[C@H](CO)[C@H]2C(=O)Nc1ccccc1 | i |

Next entries.
SMILES	FGF22 binding
CC(C)NC(=O)Nc1ccc2c(c1)C(=O)N([C@H](C)CO)C[C@H](C)[C@H](CN(C)Cc1ccccc1)OCCCC[C@@H](C)O2	i
COc1ccccc1CNC(=O)C[C@@H]1CC[C@@H](NC(=O)CN(C)C)[C@@H](CO)O1	i
Cc1ccc(S(=O)(=O)Nc2cccc3c2O[C@H](CN(C)S(=O)(=O)c2ccccc2)[C@@H](C)CN([C@@H](C)CO)C3=O)cc1	i
C[C@H]1CN([C@@H](C)CO)C(=O)c2cc(C#CCN(C)C)cnc2O[C@H]1CN(C)C(=O)Cc1ccccc1	i
C[C@@H]1CN([C@@H](C)CO)C(=O)c2cc(C#Cc3ccncc3)cnc2O[C@@H]1CN(C)S(=O)(=O)c1ccccc1F	i
C[C@H]1CCCCO[C@H](CN(C)C(=O)Nc2ccc(C(F)(F)F)cc2)[C@@H](C)CN([C@@H](C)CO)C(=O)c2cc(N(C)C)ccc2O1	i
CC(C)NC(=O)N(C)C[C@@H]1Oc2cc(-c3ccccc3)ccc2S(=O)(=O)N([C@@H](C)CO)C[C@H]1C	i
Cc1noc(C)c1NC(=O)Nc1ccc2c(c1)C(=O)N([C@H](C)CO)C[C@H](C)[C@H](CN(C)S(=O)(=O)c1cccs1)OCCCC[C@H](C)O2	i
COC(=O)[C@H]1[C@H](CO)[C@H]2Cn3c(cccc3=O)[C@H]2N1CC1CCCCC1	i
O=C(NC1CCCC1)[C@H]1[C@H](CO)[C@H]2Cn3c(ccc(C4=CCCC4)c3=O)[C@@H]1N2C(=O)c1ccccc1	i
C[C@@H]1CN([C@@H](C)CO)C(=O)c2cc(NC(=O)C3CC3)ccc2O[C@H]1CN(C)S(C)(=O)=O	i
C[C@@H]1CCCCO[C@@H](CN(C)Cc2ccc(C(=O)Nc3ccccc3N)cc2)[C@@H](C)CN([C@H](C)CO)C(=O)c2cc(NC(=O)c3ccccc3)ccc2O1	i
O=C(C[C@H]1C[C@H]2c3cc(NC(=O)Nc4ccccc4)ccc3O[C@H]2[C@@H](CO)O1)NCC1CC1	i
C[C@H](O)C#Cc1cnc2c(c1)C(=O)N([C@H](C)CO)C[C@@H](C)[C@@H](CN(C)C(=O)c1ccncc1)O2	i
O=C(C1CCOCC1)N1CC(=O)N2[C@H](CO)[C@@H](c3ccc(C#Cc4cccc(F)c4)cc3)[C@H]2C1	i
Cc1ccc(S(=O)(=O)N[C@@H]2CC[C@@H](CC(=O)N3CCC(Cc4ccccc4)CC3)O[C@H]2CO)cc1	i
C[C@H]1CN([C@@H](C)CO)C(=O)Cc2cc(NC(=O)Cc3ccccc3)ccc2O[C@@H]1CN(C)Cc1ccc(Cl)c(Cl)c1	i
Cc1ccc(S(=O)(=O)N[C@H]2CC[C@@H](CCn3cc(C4CCCC4)nn3)O[C@@H]2CO)cc1	i
C[C@@H]1CN([C@@H](C)CO)C(=O)c2cc(NC(=O)c3ccccc3)ccc2O[C@@H](C)CCCCO[C@H]1CN(C)C(=O)NC1CCCCC1	i
C[C@@H]1CN([C@@H](C)CO)C(=O)c2cccc(NC(=O)C3CC3)c2O[C@H]1CN(C)Cc1ccncc1	+
C[C@H]1CN([C@@H](C)CO)C(=O)c2cccc(NC(=O)Nc3cccc4ccccc34)c2O[C@H]1CN(C)C(=O)Nc1ccc(F)cc1	i
